# RVFV N-RNA FP = RVFV nucleocapsid-RNA interaction inhibition; P21700; RVFV N-RNA binding, fluorescence polarization; stronger effect = lower value; % bound, % (concentration not given with the values); actives 0.1% (n = 20,000); AID 651828;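 active means between 0 and 58% in either replicate with normal brightness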;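 further: 100 nL library stock added to about 12 µL; 100% = protein and probe without compound and 0% = probe alone; numbers are from one replicate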
# Target sequence (P21700 whole entry, looked up): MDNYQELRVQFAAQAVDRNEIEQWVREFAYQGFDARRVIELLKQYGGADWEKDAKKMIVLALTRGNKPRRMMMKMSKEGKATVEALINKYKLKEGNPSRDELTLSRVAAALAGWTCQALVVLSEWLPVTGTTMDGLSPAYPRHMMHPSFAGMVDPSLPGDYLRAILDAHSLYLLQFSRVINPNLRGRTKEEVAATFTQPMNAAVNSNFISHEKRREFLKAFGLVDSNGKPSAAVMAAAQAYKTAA
# The depositor's hits bear a star; & = joins results of further samples.
SMILES,RVFV N-RNA FP
CC(C)Cc1nc2ccccc2c(=O)n1-c1ccccc1,98
N#C/C(=C\c1ccc[nH]1)S(=O)(=O)c1ccccc1,94
c1csc(-c2ccc(-c3ccn[nH]3)s2)c1,91
NC(=O)Cc1coc2ccc3ccccc3c12,108
Oc1ccc2c3c1O[C@H]1c4oc5ccccc5c4C[C@@]4(O)C(C2)N(CC2CC2)CCC314 (some centres undefined),93
CN(C)c1ccc(NC(=O)NCc2ccccc2)cc1,97
C#CCOc1ccc2ccccc2c1CO,90
O=C(Nc1sccc1C(=O)N1CCOCC1)c1cccnc1,96
O=C(O)CCSc1nnc(-c2cccs2)o1,100
CC/C(C)=N/NS(=O)(=O)c1ccccc1,109
CN1CCN(C(CNC(=O)Cc2ccc(F)cc2)c2ccc(F)cc2)CC1 (centres undefined),90
COC(=O)N1CCN(CCc2ccccc2)CC1,86
O=C1CC2(CCCC2)CC(=O)N1CCNCC1COc2ccccc2O1 (centres undefined),96
CSc1nnc(Cc2cc(=O)[nH]c(=O)[nH]2)n1-c1ccccc1,91
CC(C(=O)O)N1C(=O)c2cccc3cccc1c23 (centres undefined),96
Cc1cccc(-c2nc(C#N)c(N(C)C)o2)c1,92
COC(=O)c1cc(=O)n(-c2cc(Cl)cc(Cl)c2)[nH]1,94
Cc1n[nH]c(=O)c(N)c1-c1cc(-c2ccc(Cl)c(Cl)c2)n[nH]1,96
O=C(NCCO[N+](=O)[O-])c1cccnc1,96&98
O=C(NCc1ccccc1)N1CCCCC1,99
CC(C)C(c1ccc(N(C)C)cc1)c1ccc(N(C)C)cc1,95
O=C(NCC1COC2(CCCC2)O1)c1ccccc1 (centres undefined),97
CCCC(=O)Nc1ccc(C(=O)N2CCc3ccccc32)cc1,91
CC(C)CCNC(=S)Nc1ccccn1,93
O=C(NCCC1=CCCCC1)Nc1ccc(Cl)cc1,96
Nc1nc2c(ncn2COCCO)c(=O)[nH]1,99&98&98
O=C1CCc2cc(C3=CSC4=NCCCN34)ccc2N1,88
Cc1cccc(/N=c2\scc(-c3ccco3)n2-c2ccccc2)n1,91
COCCCn1c(=O)c2ccccc2c2ccccc2c1=O,96
COc1ccc(CCN2CCC(Nc3nc4ccccc4n3Cc3ccc(F)cc3)CC2)cc1,96
COc1ccc(C)c2sc(N(Cc3ccccn3)C(=O)c3ccco3)nc12,101
O=S(=O)(c1ccc(NC(=S)NCc2ccco2)cc1)N1CCCc2ccccc21,93
Cc1ccc(N(Cc2ccco2)C(=O)c2cc3ccccc3oc2=O)cc1,88
N#CNC(N)=Nc1ccccc1,87
CC[C@H]1OC(=O)[C@H](C)[C@@H](O[C@H]2C[C@@](C)(OC)[C@@H](O)[C@H](C)O2)[C@H](C)[C@@H](O[C@@H]2O[C@H](C)C[C@H](N(C)C)[C@H]2O)[C@](C)(O)C[C@@H](C)CN(C)[C@H](C)[C@@H](O)[C@]1(C)O,95
COCCNC(=O)c1ccccc1NC(=O)Nc1ccccc1,92
O=C(Cc1nc2ccccc2[nH]1)C(F)(F)F,101
COC(=O)c1c(C(F)(F)F)nc(C(F)F)c(C(=O)O)c1CC(C)C,97
N=Cc1c(O)n(-c2ccccc2)c2ccccc12,97
NC(=O)N/C(CSCc1c(F)cccc1Cl)=N/O,95
O=C(O)C1N(Cc2ccccc2)CCCN1Cc1ccccc1,92
COc1cc(/C=C/C(=O)C2=C(O)c3ccccc3C2=O)ccc1O,95
C=CC[N+]1([C@H]2C[C@H]3[C@@H]4CC[C@H]5C[C@H](O)[C@@H](N6CCOCC6)C[C@]5(C)[C@H]4CC[C@]3(C)[C@H]2OC(C)=O)CCCC1,95
CC(C)NC(=O)c1cc2ccccc2oc1=O,99
Cc1ccc(C(CNC(=O)c2ccccc2)N2CCN(C)CC2)cc1 (centres undefined),93
CN(C)c1ccc(C(=O)OCc2ccccc2)cc1,95
COC(=O)CCSC1CC(=O)N(c2ccccc2)C1=O (centres undefined),94
COc1ccc(CN2C(=O)c3ccccc3C2=O)cc1,103
COc1ccccc1C1/C(=C(\O)c2cc(C)ccc2C)C(=O)C(=O)N1CCCN(C)C (centres undefined),98
Cn1nnc(NC(=S)NC(=O)c2cccs2)n1,97
# Carrying on:
SMILES,RVFV N-RNA FP
CCN(CC)c1ccc(/C=C(/C#N)c2ccc3c(c2)OCO3)cc1,100
CC(=O)Nc1ccc(S(=O)(=O)NC2CCCCC2NS(=O)(=O)c2ccc(NC(C)=O)cc2)cc1 (centres undefined),95
Cc1ccc(OCC(=O)NC2CC2)cc1,96
N#C/C(=C\Nc1ccc(C(=O)O)cc1)c1nc2ccccc2[nH]1,92
C=CCNC(=S)Nc1ccc(Br)cc1,94
CO[C@H]1/C=C/O[C@@]2(C)Oc3c(C)c(O)c4c(O)c(c(/C=N/N5CCN(C)CC5)c(O)c4c3C2=O)NC(=O)/C(C)=C\C=C\[C@H](C)[C@H](O)[C@@H](C)[C@@H](O)[C@@H](C)[C@H](OC(C)=O)[C@@H]1C,94
COC(C(=O)NN=C1CCN(C)CC1)c1ccccc1 (centres undefined),93
Cc1nnsc1C(=O)Nc1ccccc1C#N,92
CCCCN1C(=O)CNC1=S,93
CCN1CCc2c(OC)cccc2C1=O,96

# The last ten compounds of the part before are carried over, then new ones follow:
SMILES,RVFV N-RNA FP
CCN(CC)c1ccc(/C=C(/C#N)c2ccc3c(c2)OCO3)cc1,100
CC(=O)Nc1ccc(S(=O)(=O)NC2CCCCC2NS(=O)(=O)c2ccc(NC(C)=O)cc2)cc1 (centres undefined),95
Cc1ccc(OCC(=O)NC2CC2)cc1,96
N#C/C(=C\Nc1ccc(C(=O)O)cc1)c1nc2ccccc2[nH]1,92
C=CCNC(=S)Nc1ccc(Br)cc1,94
CO[C@H]1/C=C/O[C@@]2(C)Oc3c(C)c(O)c4c(O)c(c(/C=N/N5CCN(C)CC5)c(O)c4c3C2=O)NC(=O)/C(C)=C\C=C\[C@H](C)[C@H](O)[C@@H](C)[C@@H](O)[C@@H](C)[C@H](OC(C)=O)[C@@H]1C,94
COC(C(=O)NN=C1CCN(C)CC1)c1ccccc1 (centres undefined),93
Cc1nnsc1C(=O)Nc1ccccc1C#N,92
CCCCN1C(=O)CNC1=S,93
CCN1CCc2c(OC)cccc2C1=O,96
CCCCOC(=O)c1ccc2c3c(onc13)-c1ccccc1C2=O,95
CN1[C@@H](C[C@H](O)c2ccccc2)CCC[C@H]1CC(=O)c1ccccc1,96
CN1CCc2cc(NC(=O)Nc3cccnc3)ccc21,98
CC1CN(C(=S)Nc2ccccc2)CC(C)O1 (centres undefined),92
CC(=O)N1CCN(c2ccc(NC(=O)CSc3nc4ccccc4o3)cc2)CC1,83
COc1ccc([C@H]2CC(=O)c3c(O)cc(O)cc3O2)cc1O,82
CCN(CC)C(=O)Cn1cc(S(=O)(=O)CC(=O)N2CC(C)OC(C)C2)c2ccccc21 (centres undefined),99
Cc1cc(=O)n2ccccc2n1,94
Cc1onc(-c2ccccc2)c1-c1ccc(S(N)(=O)=O)cc1,92
O=C(NCCO)Nc1ccccc1,97
O=C1Nc2ccc(Br)cc2C1(O)Cc1ccncc1 (centres undefined),97
COc1ccc(CN(C)C2CCCCC2)c(C)c1C,100
NCCCn1cc(C2=C(c3c[nH]c4ccccc34)C(=O)NC2=O)c2ccccc21,110
CCCNc1cc(C)oc(=O)c1C(=O)CCC,98
CCn1cc(C(C)NC(=O)Nc2ccccc2C(=O)OC)c(C)n1 (centres undefined),95
CCCN(CC1CC1)C(=O)Nc1ccccc1C,100
CCOC(=O)Cn1cnc(=O)c(C#N)c1C,102
COc1cccc(OC)c1/C(O)=C(\C#N)c1nc2ccccc2s1,91
S=C(SCc1ncon1)N1CCOCC1,93
CCN(CC)C(=O)CN1CCC(c2nc3ccccc3[nH]2)CC1,95
CC(C)C(NS(=O)(=O)c1ccccc1)C(=O)NC1CCCC1 (centres undefined),95
C#Cc1cccc(Nc2ncnc3cc(OCCOC)c(OCCOC)cc23)c1,94
CC(=O)OC1CC(C)(C)N(C(C)=O)C(C)(C)C1,94
CN(C)S(=O)(=O)c1ccc(C(=O)Nc2c3c(nn2-c2ccccc2)CSC3)cc1,83
O=C1NC(O)=NC1(c1ccccc1)c1ccccc1,107
CCOc1ccc(/C=N/C2=C(C#N)C3CCCCC3S2)cc1OC (centres undefined),97
O=C(CN1CCCCCCC1)N/N=C/c1ccccc1C(F)(F)F,90
Cn1c(=O)c2[nH]cnc2n(-c2ccccc2)c1=O,96
CC(Sc1nnc(N)s1)C(=O)Nc1nccs1 (centres undefined),93
COc1ccccc1C(=O)Nc1ccc(C)cc1,91
CCC(C)NC(=O)COc1cccc(C)c1C (centres undefined),99
COCCNc1oc(-c2ccccc2)nc1S(=O)(=O)c1ccc(Cl)cc1,102
O=C(/C=C/c1ccccc1)CC(=O)c1ccccc1O,98
CN(C)S(=O)(=O)c1cccc(C(=O)NCC2CCCO2)c1 (centres undefined),99
Nc1nc(Cl)nc2c1ncn2[C@@H]1O[C@H](CO)[C@@H](O)[C@H]1O,98
CNC(=S)NN1C(C)CCCC1C (centres undefined),92
CN(C1=NC(=O)CS1)c1ccc(Cl)cc1,99
Fc1ccc([C@@H]2CCNC[C@H]2COc2ccc3c(c2)OCO3)cc1,96&97&98
CCSc1nnc(NC(=O)CC(C)C)s1,92
O=C(Nc1ccccc1)Nc1c2ccccc2nc(=O)n1Cc1ccccc1,99
CC(=O)O/N=C(\N)c1nccnc1Sc1ccc(Cl)cc1,92
N#Cc1ccc(NC(=O)CS(=O)(=O)c2ccccc2)cc1,89
O=C(O)c1c[nH]c(=O)cc1C(F)(F)F,97
C=CCN(CC=C)S(=O)(=O)c1ccc(NC(=O)Nc2ccccc2)cc1,100
CC1(C)OC(CN)C(CN)O1 (centres undefined),86
C/C(=N/OC(=O)c1ccccc1)C(=O)c1cccs1,95
CCN(CC)C(=O)CSc1nnc2nnc3ccccc3n12,94
O=C(CSc1nnc(Cc2ccccc2)o1)NCCc1ccccc1,97
Cc1nc2ccccn2c1C(=O)N/N=C/c1ccccc1,98
O=C(OCc1ccc2c(c1)OCO2)c1ccc(S(=O)(=O)N2CCCC2)cc1,93

# Sorted by length of the SMILES (low to high): some entries from above
SMILES,RVFV N-RNA FP
CC1(C)OC(CN)C(CN)O1 (centres undefined),86
O=C(O)c1c[nH]c(=O)cc1C(F)(F)F,97
Cc1nc2ccccn2c1C(=O)N/N=C/c1ccccc1,98
C/C(=N/OC(=O)c1ccccc1)C(=O)c1cccs1,95
O=C(CSc1nnc(Cc2ccccc2)o1)NCCc1ccccc1,97
N#Cc1ccc(NC(=O)CS(=O)(=O)c2ccccc2)cc1,89
O=C(Nc1ccccc1)Nc1c2ccccc2nc(=O)n1Cc1ccccc1,99
O=C(OCc1ccc2c(c1)OCO2)c1ccc(S(=O)(=O)N2CCCC2)cc1,93

# (continued)
SMILES,RVFV N-RNA FP
Cc1o[nH]c(=O)c1CC(N)C(=O)O (centres undefined),94
Cc1ccc(N2C(=O)NC(=O)/C(=C/c3ccc(Br)o3)C2=O)cc1Cl,105
CCCCNS(=O)(=O)c1c(C)c(C)cc(C)c1C,93
COC(=O)C(C)Oc1ccc2oc(=O)cc(-c3cc4ccccc4o3)c2c1 (centres undefined),97
O=C(O)C1CCCN(CCC=C(c2ccccc2)c2ccccc2)C1 (centres undefined),91
Cc1ccccc1OC(=O)OCC(C)C,98
O=C1CNC(=S)N1Cc1cccs1,98
C/C(=N\NC(N)=O)c1ccccc1O,87
CSc1nc(N)n2nc(-c3cccs3)cc2n1,98
COc1ccc(CC(=O)Nc2ccc(-c3nnc(-c4ccc(C)cc4)o3)cc2)cc1,97
Cc1cc2n(n1)c1cc(C)nn1c1cc(C)nn21,92
CC(Oc1ccccc1F)C(=O)NCCN1CCCCC1 (centres undefined),88
CCOC(=O)c1nn(-c2ccc(C)cc2)c(=N)s1,91
COc1cc2oc(=O)cc(C)c2cc1OC,106
CC(=O)Nc1ccc(C(=O)OCc2cccc(F)c2)cc1,92
CCn1cc(Br)c(C(=O)NC(C)c2ccccc2)n1 (centres undefined),97
O=C(O)c1cccc(S(=O)(=O)Nc2ccccc2Cl)c1,99
CCOC(=O)N1CCC(NS(=O)(=O)c2ccc(C)cc2)CC1,92
O=S(=O)(CC(O)CS(=O)(=O)c1ccc(Cl)cc1)c1ccccc1 (centres undefined),100
CCN(C(=O)C1CCCCC1)c1ccccc1C,99
CSc1nc(O)cc(=O)[nH]1,97
CCN(CC)CCCOc1c(OC)cccc1OC,101
COC(=O)c1cc(S(=O)(=O)NCc2ccc(S(N)(=O)=O)cc2)oc1C,101
CC(=O)Nc1cccc(SSc2cccc(NC(C)=O)c2)c1,95
NC(=O)CSc1nnc(NC(=O)Cc2cccs2)s1,104
COc1ccccc1OCCNC(=O)C1CCCCC1,92
Cc1ccc(CN2CCN(C/C=C/c3ccccc3)CC2)cc1,90
Cc1cc2c(c(=O)[nH]1)C(c1ccncc1)C(C#N)=C(N)O2 (centres undefined),90
O=C(O)c1sccc1S(=O)(=O)N1CCN(c2ncc(C(F)(F)F)cc2Cl)CC1,93
O=C(N/N=C/c1ccco1)c1csc2c1CCCC2,92
CN(C)C(=O)Nc1ccc2c(c1)nnn2C,99
NCCN1C(=O)C2C3c4ccccc4C(c4ccccc43)C2C1=O (centres undefined),99
CSc1ccc(S(=O)(=O)NCCc2ccccc2)cc1,91
N#Cc1ccc(C=Nc2ccc(N)c(Cl)c2)cc1,96
COc1ccc(Nc2nc(C)cc(=O)[nH]2)cc1,93
CCSc1nc(=O)[nH]c2c1CCC2,92
COc1ccc(NC(=O)c2cn(-c3ccccc3)nc2SC)cc1,94
O=C(O)c1cnc(SCc2ccccc2)[nH]c1=O,99
CNCC(O)c1ccc(O)c(O)c1 (centres undefined),93&92
O=C(c1cccs1)N1CCCn2c(SCc3ccccc3Cl)nnc21,78
Cc1noc(C)c1-c1nnc(-c2cccc(Cl)c2)o1,92
COc1ccc2nc(NCc3cccnc3)sc2c1,102
CCCC(C)C(=O)N1CC(C)CC(C)C1 (centres undefined),94
COc1ccc2nc(NC(=O)c3ccoc3C)sc2c1,92
COC(CNC(=S)Nc1cccc(C)c1)OC,95

# Source: PubChem (ICCB-Longwood Screening Facility, Harvard Medical School)

# Some of the compounds tested; the hit share may differ from the screen's.
